Assay outcomes from PubChem.
KCNQ2 enhance: potentiators of rat KCNQ2 potassium channel; hit rate 0.54% among 310,000; AID 2239; CHO-K1 KCNQ2, FluxOR thallium flux fluorescence; active compounds read high; B-score at 10 µM;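 active = fluorescence ratio B-score at least 3 SD of library B-scores, with initial fluorescence B-score within 3 SD, cut at about 5.3 in these data; same plate scores as AID 2156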;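 also: B-score of peak minus minimum over baseline fluorescence ratio after K+ and Tl+ stimulus; positive B-score means potentiation of KCNQ2 with more thallium influx and brighter signal; only the inactives scoring about 0 or higher are listed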
Target sequence (O88943 whole entry, looked up): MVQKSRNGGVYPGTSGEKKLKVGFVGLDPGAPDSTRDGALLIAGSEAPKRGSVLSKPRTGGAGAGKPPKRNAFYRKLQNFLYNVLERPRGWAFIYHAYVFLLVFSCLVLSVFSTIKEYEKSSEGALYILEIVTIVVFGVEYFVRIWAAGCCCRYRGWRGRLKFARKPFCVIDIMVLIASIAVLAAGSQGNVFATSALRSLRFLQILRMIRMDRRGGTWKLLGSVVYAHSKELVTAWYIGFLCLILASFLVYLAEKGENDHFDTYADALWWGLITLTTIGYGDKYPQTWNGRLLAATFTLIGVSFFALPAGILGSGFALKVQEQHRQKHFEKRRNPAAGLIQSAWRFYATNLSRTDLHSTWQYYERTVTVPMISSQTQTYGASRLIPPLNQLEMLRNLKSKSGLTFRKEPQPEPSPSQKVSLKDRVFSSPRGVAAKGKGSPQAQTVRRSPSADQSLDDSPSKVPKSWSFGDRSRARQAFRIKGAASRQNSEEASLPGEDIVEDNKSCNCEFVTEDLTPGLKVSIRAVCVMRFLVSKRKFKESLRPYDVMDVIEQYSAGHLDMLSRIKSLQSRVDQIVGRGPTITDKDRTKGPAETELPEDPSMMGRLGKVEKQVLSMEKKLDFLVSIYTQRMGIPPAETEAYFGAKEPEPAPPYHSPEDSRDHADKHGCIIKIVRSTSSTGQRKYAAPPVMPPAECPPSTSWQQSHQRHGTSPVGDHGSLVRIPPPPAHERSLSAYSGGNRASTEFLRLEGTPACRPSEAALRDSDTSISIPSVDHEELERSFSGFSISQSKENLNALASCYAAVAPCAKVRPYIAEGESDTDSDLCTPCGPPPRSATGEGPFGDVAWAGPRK
KCNQ2 enhance baseline: further read-out of KCNQ2 enhance, marked with its call; B-score; compound at 10 µM; measured here: initial fluorescence intensity artifact check;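 brightness before thallium and not channel activity; 0 = typical well and far values either way flag optical interference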
An asterisk follows results filed as active. A portion of the library; rates above refer to the full screens.

SMILES	KCNQ2 enhance	KCNQ2 enhance baseline
COC(=O)c1ccc(CN(Cc2ccc(C(=O)OC)o2)C(C)(C)C)o1	1.13	1.68
COc1cccc(CNC(=O)CSc2nnc3c(n2)[nH]c2ccc(F)cc23)c1	1.03	-1.79
Cn1c(SCC(=O)N/N=C/c2cccnc2)nnc1-c1ccccc1	0.18	0.89
COc1cc(CN2CC(C)CC(C)C2)cc([N+](=O)[O-])c1O (centres undefined)	1.33	-2.19
CS(=O)(=O)CCC(C(=O)OCc1ccc(Br)cc1)N1C(=O)c2ccccc2C1=O (centres undefined)	0.25	0.62
O=C(Nc1ccc(S(=O)(=O)N2CCOCC2)cc1)C1CCN(S(=O)(=O)c2ccccc2)CC1	2.03	-0.01
NC(=O)NC(=O)CN1c2cccc3cccc(c23)S1(=O)=O	0.06	-1.04
CS(=O)(=O)N1CCN(c2ccc(C(=O)N3CCOCC3)cc2[N+](=O)[O-])CC1	0.97	-1.82
C=CCn1c(CNC(=O)c2ccccc2F)nnc1SCC(=O)NC(C)c1ccccc1 (centres undefined)	1.24	1.51
O=C(O)CCCC(=O)N1N=C(c2ccco2)CC1c1ccco1 (centres undefined)	0.55	-0.04
Cc1ccc(S(=O)(=O)N(C)CC(=O)O/N=C(\N)c2ccccn2)cc1	0.25	1.89
Cc1ccc(C)c(NC(=S)NCCCN2CCOCC2)c1	0.01	0.02
CC(=O)N1N=C(c2ccc(C)o2)CC1c1ccc(F)cc1 (centres undefined)	0.55	0
CC1CN(C(=O)c2cc3cc([N+](=O)[O-])ccc3s2)CC(C)O1 (centres undefined)	0.69	-0.18
CC(=O)N1CCCc2ccccc21	0.87	0.17
CC(=O)c1cccc(NC(=O)N2CCC(NC(=O)C34CC5CC(CC(C5)C3)C4)CC2)c1	0.51	0.02
Cc1ccc2nc3c(cc2c1)c(C)nn3-c1ccccc1	2.41	-0.16
O=C(/C=C/c1ccc(F)cc1)N1CCN(S(=O)(=O)/C=C/c2ccccc2)CC1	0.14	0.04
CCOC(=O)c1sc(/N=C/c2ccc(O)cc2O)cc1C	0.1	-0.28
CCc1ccc(C(CC(=O)c2ccc(Cl)cc2)C(=O)O)cc1 (centres undefined)	1.47	0.1
Cc1cccc(C(=O)NCC2CCCO2)c1 (centres undefined)	0.22	-1.1
Cc1ccc(C)c(N2CN(Cc3cccnc3)CNC2=S)c1	0.36	0.31
CCc1nc2ccccc2n1CC1CC1(Cl)Cl (centres undefined)	0.51	-0.43
O=C(Nc1nnc(-c2ccc3c(c2)CCCC3)o1)c1ccccc1Cl	9.42*	-1.2*
CCCCCCOc1ccc(C(=O)O)cc1C#N	1.78	-0.68

Reprinted at random: seven records from the list, in no set order.
SMILES	KCNQ2 enhance	KCNQ2 enhance baseline
CC1CN(C(=O)c2cc3cc([N+](=O)[O-])ccc3s2)CC(C)O1 (centres undefined)	0.69	-0.18
Cc1ccc(C)c(N2CN(Cc3cccnc3)CNC2=S)c1	0.36	0.31
CS(=O)(=O)N1CCN(c2ccc(C(=O)N3CCOCC3)cc2[N+](=O)[O-])CC1	0.97	-1.82
Cc1ccc2nc3c(cc2c1)c(C)nn3-c1ccccc1	2.41	-0.16
CC(=O)c1cccc(NC(=O)N2CCC(NC(=O)C34CC5CC(CC(C5)C3)C4)CC2)c1	0.51	0.02
CCOC(=O)c1sc(/N=C/c2ccc(O)cc2O)cc1C	0.1	-0.28
Cn1c(SCC(=O)N/N=C/c2cccnc2)nnc1-c1ccccc1	0.18	0.89

Exported with two lines to a compound: part of the list above.
Values run as follows: KCNQ2 enhance	KCNQ2 enhance baseline
Cn1c(SCC(=O)N/N=C/c2cccnc2)nnc1-c1ccccc1
  0.18	0.89
O=C(Nc1nnc(-c2ccc3c(c2)CCCC3)o1)c1ccccc1Cl
  9.42*	-1.2*
CCCCCCOc1ccc(C(=O)O)cc1C#N
  1.78	-0.68
CC(=O)N1CCCc2ccccc21
  0.87	0.17

(more compounds)
SMILES	KCNQ2 enhance	KCNQ2 enhance baseline
CCOC(=O)C1CCN(C(=O)c2ccc(NS(=O)(=O)c3ccc(F)cc3C)cc2)CC1	0.1	0.2
CCn1cc(S(=O)(=O)CC(=O)Nc2ccc(OC)cc2)c2ccccc21	0.31	1.3
CS(=O)(=O)N1CCCC(C(=O)NCc2ccccc2Cl)C1 (centres undefined)	1.26	0.43
COc1cccc(/C=N/NC(=S)NC2CC3CC2C2C=CCC32)c1O (centres undefined)	1.64	-1.15
CC(=O)N1c2ccccc2Sc2ccccc21	0.65	-1.48
COc1ccc(-c2cc(C(F)(F)F)nc(N3CCN(c4ccc(F)cc4)CC3)n2)cc1OC	0.7	0.18
OC(CN1C2=NCCN2c2ccccc21)c1ccc(Br)cc1 (centres undefined)	2.15	-1.16
c1cncc(-c2nc(N3CCOCC3)c3ccccc3n2)c1	2.06	1.09
CC(Cc1ccccc1)C(=O)N(C)Cc1cccnc1 (centres undefined)	1.31	-0.98
Cc1ccc(NC(=O)CNc2cccc(S(=O)(=O)N3CCOCC3)c2)cc1F	3.08	-0.77
COc1cc(NC(=O)CSc2nc3cc(C)ccc3cc2C)c(C(=O)O)cc1OC	0.09	0.56
Cc1cc(Oc2ccc(=O)n(C)n2)nc(Oc2ccc(=O)n(C)n2)n1	0.71	-0.85
CCn1c(SCC(=O)N2CCc3ccccc32)nnc1-c1ccncc1	1.2	-0.07
COc1cccc(CC2(CO)CCN(Cc3ccc(NC(C)=O)cc3)CC2)c1	0.74	0.79
Cc1ccccc1OCCC(=O)Nc1c(C)n(C)n(-c2ccccc2)c1=O	0.03	1.09
CC(C)c1nnc(SCC(=O)N2CCc3ccccc32)n1C	1.88	1.82
Cc1ccc(CS(=O)Cc2ccc(C(=O)NCc3cccs3)o2)cc1 (centres undefined)	2.54	-0.4
Cc1nn2c(-c3ccc(Cl)cc3Cl)nnc2s1	2.14	4.78
O=c1[nH]c2c(s1)C(c1ccco1)C1C3CCC(C3)C1S2 (centres undefined)	0.17	-0.03
COCCN(C(=O)c1cccc(OC)c1)c1nnc(-c2ccncc2)s1	0.03	-0.67
N#Cc1cn(CC(=O)N2CCCc3ccccc32)c2ccccc12	0.04	-0.78
Cc1cc(OCC(O)CN(C)C(=O)C(C)Oc2ccccc2)ccc1Cl (centres undefined)	2.67	1.13
COc1ccc(CN2C(=O)c3cccnc3C2=O)cc1S(=O)(=O)NCc1ccc(C)o1	0.2	-2.31
CN1CCN(C(=O)C2CCN(c3ncnc4c3nc3n4CCCCC3)CC2)CC1	0.03	-0.41
CCOc1ccccc1C(=O)Nc1nnc(Cc2ccc(OC)c(OC)c2)s1	1.77	-0.86

(next part)
SMILES	KCNQ2 enhance	KCNQ2 enhance baseline
O=C(Nc1ccccc1C(=O)Nc1ccc(Cl)cc1)c1cccnc1	0.48	0.62
COc1cccc(CC(=O)Nc2cc(S(=O)(=O)N3CCOCC3)ccc2N2CCOCC2)c1	0.01	-0.08
CC(=O)NC(NC(=S)Nc1ccc(C)cc1C)C(Cl)(Cl)Cl (centres undefined)	1.03	-0.19
CSc1nc(N)nc(SCCS(=O)(=O)c2ccc(Cl)cc2)c1C#N	0.63	-0.4
COc1cccc(-c2cc(C(F)(F)F)nc(-n3cc(Cl)cn3)n2)c1	0.21	0.54
COc1ccc(S(=O)(=O)N2CCCC(C(=O)N3CCN(c4ccccc4)CC3)C2)cc1Cl (centres undefined)	0.82	0.59
CC(=O)NC(Cc1ccccc1)C(=O)NC1CCN(C(=O)NCc2ccccc2)CC1 (centres undefined)	0.03	0.03
Cn1cc(C(=O)c2cccc(Cl)c2Cl)cc1C#N	0.04	1.7
CCc1cc2c(=O)c(-c3nc(C)cs3)coc2cc1O	0.17	-0.23
CC(C)(C)c1cc(/C=N/O)cc(C(C)(C)C)c1O	1.05	0.55
CC(C)C(=O)Nc1c(-c2ccc(Cl)cc2)c(=O)c2ccccc2n1C	0.79	1.68
COc1ccc(C(CNC(=O)c2ccco2)N2CCCCC2)cc1 (centres undefined)	0.25	0.62
Cc1ccc(S(=O)(=O)N2CCCC2C(=O)NCc2ccncc2)cc1 (centres undefined)	1.04	-0.19
CCOC(=O)Cc1cc(=O)c2c(=O)n(-c3ccccc3)[nH]c2[nH]1	0.01	-0.04
Cc1sc2ncn(CC(=O)N3CCOCC3)c(=O)c2c1-c1ccccc1	1.64	-0.39
CSc1nc(Cl)cc(=O)[nH]1	0.55	0
COc1cnc(-c2ccccn2)nc1N(C)C	1.52	-0.26
CCOC(=O)C(C)Sc1nnc(NC(=O)c2ccc3c(c2)OCO3)s1 (centres undefined)	1.76	0.02
C/C(=N/NC(=O)CNC(=O)c1ccccn1)c1cccc([N+](=O)[O-])c1	0.4	0.07
O=C(NCc1ccncc1)C1CCN(S(=O)(=O)c2ccccc2)CC1	0.26	-0.15
O=S(=O)(/N=C(/Nc1ccccc1)c1ccccc1)c1cccs1	0.64	0.34
COc1cccc(CN(C)C(=O)c2ccc3nccnc3c2)c1	0.41	0.74
COc1ccc(C(=O)Nc2ccc(C(=O)Nc3cccnc3)cc2)cc1	0.1	-1.49
CCCCCCCCCCC(=O)NNC(=O)c1c(O)c2ccccc2n(CC)c1=O	0.89	1.72
Cc1ccccc1NC(=S)N1CCN(C(=O)c2ccco2)CC1	0.41	-0.41

Next results:
SMILES	KCNQ2 enhance	KCNQ2 enhance baseline
O=C(c1ccccc1)c1nccn1-c1ccc(Cl)nn1	1.45	-1.52
CCOC(=O)N1CCN(C(=O)CNC(=O)c2ccc(Cl)cc2)CC1	1.05	0.72
O=C(N/N=C/c1cc(Br)c(O)c(Br)c1)c1cccc(C(F)(F)F)c1	1.05	-0.12
CCc1ccc(C(=O)NC(CCSC)C(=O)O)cc1 (centres undefined)	0.5	2.86
O=C(CCN1C(=O)/C(=C\c2cccc(Br)c2)SC1=S)NCCCN1CCOCC1	1.06	-1.26
CCCNC(=O)N1CCN(S(C)(=O)=O)CC1	1.32	-0.09
O=C(O)c1ccc(Cn2ccc3ccccc32)o1	2.81	-1.6
O=C(Nc1ccccn1)c1cc(-n2cnnc2)ccc1Cl	1.32	-0.97
O=C(CSc1ccc2nnc(-c3ccccc3)n2n1)NCc1ccco1	0.25	-1.54
CC(C)(C)NC(=O)CN(CCc1ccccc1)C(=O)c1csnn1	0.19	-0.03
COc1ccc(CCNC(=O)CCS(=O)(=O)c2ccc3c(c2)oc(=O)n3C)cc1OC	0.61	0.02
COc1ccc(CCNS(=O)(=O)c2ccccc2[N+](=O)[O-])cc1OC	1.35	-1.59
O=C(Nc1ccc(Cl)c(Cl)c1)c1ccncc1	2.86	1.03
O=C(O)C1CC=CCC1C(=O)Nc1ccc(S(=O)(=O)N2CCCc3ccccc32)cc1 (centres undefined)	0.11	3.37
O=C(CNC(=O)c1cccc(F)c1)N/N=C/c1cccs1	1.29	-2.05
Clc1cccc2c1CCN(Cc1nc(-c3cnccn3)no1)C2	0.57	0.07
CN1CCN(c2ccc(NC(=O)COc3ccccc3[N+](=O)[O-])cc2)CC1	1.52	-1.06
CCc1cc(=O)oc2c3c(cc(OCC(=O)N[C@H](C(=O)O)[C@H](C)CC)c12)OC(C)(C)CC3	0.62	0.32
C[C@@H]1CC[C@]2(O[C@@H](CCO)C[C@@H](O)[C@@H]2O)O1	0.05	-0.07
COC(=O)c1cc(C#N)c(OC(C)C)nc1C	1.38	-0.03
Cc1cc(OC(=O)c2cc(C(F)(F)F)cc(C(F)(F)F)c2)c([N+](=O)[O-])c(=O)[nH]1	0.52	-0.69
COc1cc(/C=C/C(=O)OCC(=O)NC(=O)NCc2ccccc2)ccc1OCC#N	1.75	-0.95
COc1ccccc1Nc1nc2c(C)cccc2cc1C#N	0.1	-0.01
Cc1cccc(C)c1NC(=O)CSCC(=O)O	0.36	-0.01
O=C(Nc1cc(C(F)(F)F)ccc1N1CCOCC1)c1cccnc1	0.28	-0.06

Remaining list, next part.
SMILES	KCNQ2 enhance	KCNQ2 enhance baseline
COc1ccccc1C(=O)COC(=O)CCN=C1NS(=O)(=O)c2ccccc21	0.01	-2.02
COc1ccccc1N(Cc1ccccc1)S(=O)(=O)c1cc(C(=O)O)ccc1Cl	0.02	-0.48
CCCn1c(N)c(C(=O)NS(=O)(=O)c2ccc(C)cc2)c(=O)n(C)c1=O	0.58	0.25
CC12CCC(C(=O)N(c3cccc(Cl)c3)C1=O)C2(C)C (centres undefined)	1.01	-1.32
O=c1[nH]c2ccccc2nc1Cc1ccc([N+](=O)[O-])cc1	0.19	-1.04
Cc1onc(-c2ccccc2Cl)c1C(=O)NCc1nnnn1-c1ccc(F)cc1	0.01	0.97
CCN(c1ccccc1)S(=O)(=O)c1ccc(Cl)c(NC(=O)CSc2nncn2C)c1	0.25	-0.51
CCc1ccc(N2C(=O)c3sc4nnc(C)c(=O)n4c3C2=O)cc1	0.97	0.87
Nc1ccccc1Nc1ccncc1[N+](=O)[O-]	1.29	2.19
O=C(Nc1cc(=O)[nH]c2nc(-c3ccccc3)nn12)c1ccc(Cl)cc1	1.02	0.45
Cc1cccc(NS(=O)(=O)c2cc(OCC(N)=O)c(C)cc2Cl)c1	1.83	0.29
CC1CCCN(CCCCOc2cccc(Br)c2)C1 (centres undefined)	0.49	1.82
CCOc1ccccc1NC(=O)c1cccnc1	2.23	0.11
CC1(C)CC(=O)NC=C(c2ccccc2)C1	0.96	-1.31
COC(=O)CCCC(=O)N1CCCC(C(=O)c2ccc(-c3ccccc3)cc2)C1 (centres undefined)	1.9	-1.9
Cc1cc(C)n(C(=O)c2cccc([N+](=O)[O-])c2C)n1	0.5	-0.7
CCC(=O)N1c2ccc(S(=O)(=O)NC3CCCCC3)cc2CC1C (centres undefined)	0.04	0.1
COc1ccc(S(=O)(=O)N2CCCCCC2)cc1NC(=O)Cc1ccccc1F	0.22	-1.72
O=C(Nc1ccc(C(F)(F)F)cc1)c1ccc2nc[nH]c2c1	0.04	0.14
COc1ccc(F)cc1S(=O)(=O)n1nc(C)cc1C	0.96	0.05
